Screening results as filed in PubChem BioAssay.
NPYLR7 agonist = mosquito NPYLR7 agonism; HEK293T NPYLR7/Galpha15, GCaMP6s calcium fluorescence; activation, % at 10 µM; 0.15% of 270,000 active; AID 1259423; in the data active = activation above about 40%;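 note: 0% = vehicle and 100% = reference agonist at the receptor; some compounds past the cut are filed as inactive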
NPYLR7 agonist max-min = also measured in NPYLR7 agonist; calls as there; activation, %; measured here: Max-Min RFU normalised activation; some inactives read as strong as hits;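 span of the calcium signal over five minutes; 0% = vehicle and 100% = native peptide agonist; compound fluorescence can raise it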
* hit, by the source's call; & = joins results of further samples.

smiles,NPYLR7 agonist,NPYLR7 agonist max-min
CCc1cc(OCCCCn2cnc3ccccc3c2=O)ccc1Cl,-6,14
CC(C)CC(NC(=O)C(=O)Nc1cccc(C#N)c1)c1ccccc1 (configuration not stated),0,-1
CC(O)(CNC(=O)c1ccc(COc2ccc(F)cc2)o1)C1CCCC1 (configuration not stated),-7,-7
CSCCNC(=O)C1(C)CCN1C(=O)c1sccc1C (configuration not stated),5,0
CC(=NNc1nc2ccccc2s1)c1ccccn1,41,36
CCc1ccc(NC(=O)CSc2n[nH]c(=O)c3cc(-c4ccc(OC)cc4)nn23)cc1,7,-3
Cn1c(=O)n(C)c2cc(CN3CC(C(=O)O)CC3=O)ccc21 (configuration not stated),-2,12
CC(Nc1ccc(CS(=O)(=O)C(C)(C)C)cc1)c1ccccc1F (configuration not stated),18,14
O=S(=O)(CCSc1nnc(C2CC2)n1C1CC1)c1ccccc1,12,10
Cc1cc(Cl)ccc1N1CCN(Cc2ccc(F)cc2F)C(C)C1=O (configuration not stated),-5,-2
Cc1cc(C)n(-c2ccc(C(C)NC(=O)c3ccc(=O)[nH]n3)cc2)n1 (configuration not stated),5,4
CC(C)c1nn(CC(=O)N2CCCCCC2)c(=O)c2c1cnn2-c1ccccc1,5,2
COC(=O)Cn1ncc(N2CC(C)OC(C)C2)c(Cl)c1=O (configuration not stated),-2,-7
CCN(C(=O)c1ccccc1N1CCC(NC(=O)c2cccc(Cl)c2)CC1)C1CCCCC1,8,14
CCC(Cn1cnc(-c2ccccc2)c1-c1cccc(C)n1)N1CCN(C)CC1 (configuration not stated),-10,-12
COc1ccc(-n2ccnc2CN2CCC(n3nc(C)cc3C)C2)cc1 (configuration not stated),7,7
CCCS(=O)(=O)Nc1ccc(NC(=O)N2CCN(C)C(=O)C2)cc1,8,7
C=CCn1c(C)cn2c3c(=O)n(CC(N)=O)c(=O)n(C)c3nc12,4,3
COC(=O)NC(N1CCCC1=O)(C(F)(F)F)C(F)(F)F,-2,-3
CC(=O)c1cc(C(=O)N2CCc3c([nH]c4ccccc34)C2CC(C)C)[nH]n1 (configuration not stated),6,5
CS(=O)(=O)NC1CCCN(C(=O)Nc2cccc(COCc3ccco3)c2)C1 (configuration not stated),6,3
O=C(CC1CCCC1)OCc1cc(-c2ccccc2)on1,1,1
Cc1sc(NC(=O)NC(C)c2cccs2)c(C#N)c1C (configuration not stated),0,-1
O=C(CSc1ccc(-c2ccncc2)nn1)NCCc1ccccc1,4,-8
O=C(NCCc1csc2nc(-c3cccs3)nn12)c1cc(Br)ccc1Cl,4,4
CNC(=O)CC(C)N(C)C(=O)C1(Oc2ccc(Cl)cc2)CCNCC1 (configuration not stated),4,0
CC1=NN(c2ccccc2)C(=O)/C1=C/c1ccc(-c2ccc(Cl)cc2Cl)o1,-6,-12
Cc1ccc(Cc2nc(CSc3cccc(C(F)(F)F)c3)cs2)cc1,3,-1
O=C(COc1ccccc1)N=Nc1c(O)[nH]c2ccccc12,5,-8
Cc1ccc(N2CCN(C(=O)c3ccccc3Cl)C(C)C2=O)cc1C (configuration not stated),3,3

Some of the entries above in another layout.
Values in the order – NPYLR7 agonist, NPYLR7 agonist max-min
CC(Nc1ccc(CS(=O)(=O)C(C)(C)C)cc1)c1ccccc1F (configuration not stated)
    18, 14
O=S(=O)(CCSc1nnc(C2CC2)n1C1CC1)c1ccccc1
    12, 10
Cc1cc(Cl)ccc1N1CCN(Cc2ccc(F)cc2F)C(C)C1=O (configuration not stated)
    -5, -2

One compound at a time (already shown):
Entry for CNC(=O)CC(C)N(C)C(=O)C1(Oc2ccc(Cl)cc2)CCNCC1 (configuration not stated) : NPYLR7 agonist: 4; NPYLR7 agonist max-min: 0
Entry for Cn1c(=O)n(C)c2cc(CN3CC(C(=O)O)CC3=O)ccc21 (configuration not stated) : NPYLR7 agonist: -2; NPYLR7 agonist max-min: 12

(cont.)
smiles,NPYLR7 agonist,NPYLR7 agonist max-min
CC(=O)c1cc(CC(=O)N2CCC(CN)C2)cs1 (configuration not stated),13,12
CC(NC(=O)c1cc(NC(=O)C2CCCCC2)ccc1N1CCCC1)c1ccccc1 (configuration not stated),-6,-2
S=C(NCC1CCCO1)NNc1ncnc2sc3c(c12)CCCC3 (configuration not stated),-7,-9
CC1(C(=O)NCC(F)(F)F)CCN1C(=O)C/C=C/c1ccccc1 (configuration not stated),17,21
COc1ccc(NC(=O)C(C)n2c(=O)n(-c3cccc(C)c3C)c(=O)c3ccccc32)cc1 (configuration not stated),4,18
COc1ccc(N2CCN(C(=O)C3CCCC3)C(C)C2=O)c(OC)c1 (configuration not stated),16,13
CCCc1nnc2sc(Cc3csc(C)n3)nn12,6,4
Cc1cc(C)n(C(C)C(=O)NCc2cccnc2N(C)C2CCCCC2)n1 (configuration not stated),4,2
O=C(c1cc(COc2c(F)cccc2F)on1)N1CCCC(c2ccccc2)CC1 (configuration not stated),-21,-25
CCCCN(C)C(=O)c1ccc(Nc2nc(C(N)COCc3ccccc3)cs2)nc1 (configuration not stated),0,-10
CCCSc1ncc(CN2CCC(O)(c3ccc(C)cn3)CC2)cn1,19,13
CCCCC(=O)N(CC)c1c(N)n(CCCC)c(=O)[nH]c1=O,1,3
Cc1ccc(N2CC(C(=O)Nc3nc4c(s3)CCC4)CC2=O)cc1F (configuration not stated),7,3
Nc1ccc(N2CCCC2)cc1,1,0
COc1ccc(CCC(=O)N2CCN(c3cnccn3)CC2)cc1OC,-7,-7
CCNc1ncc(C(=O)N2CCOc3ccc(Cl)cc3C2)cn1,24,10
COC(=O)c1sc(NC(=O)CSc2cc(C)c3ccc(OC)cc3n2)c(C(=O)OC)c1C,-1,-4
COc1ccc(CC(=O)N2CCOC(COCc3cccc(C(F)(F)F)c3)C2)c(OC)c1OC (configuration not stated),22,20
Cc1cccc(C)c1Cn1c(C)c(C(=O)NCc2ccccc2C(F)(F)F)sc1=O,1,0
COc1cccc(C(C2Sc3nc(C)nn3C2=O)N2CCN(Cc3ccccc3)CC2)c1 (configuration not stated),8,7
CCOCCOC(=O)C1=C(C)NC(=O)NC1c1cccc([N+](=O)[O-])c1 (configuration not stated),1,-2
CC(C)N1CCC(NC(=O)CCC(=O)c2ccc3c(c2)OCCCO3)CC1,1,0
COc1ccc(-n2c(Cn3cccn3)n[nH]c2=O)cc1,1,0
CC(C)(C)c1cc(NC(=O)CN2CCCSc3ccccc32)on1,6,5
COc1ccc(CN(CCc2c[nH]c3ccccc23)C(=O)CN(C2CC2)S(=O)(=O)c2ccc(Cl)cc2)cc1OC,26,27
CCn1c(C2CCCN(C/C=C/c3ccc(F)cc3)C2)n[nH]c1=O (configuration not stated),-3,-5
Cc1ccc(SCCN(C)C(=O)CCc2cc(=O)[nH]o2)cc1,-7,-13
CN(C)c1ccc(N)cc1CN(CC1CCCO1)C(=O)c1ccco1 (configuration not stated),-1,-5
CCNC(=O)Cc1cccc(N(Cc2ccccc2)C(=O)NC(C)(C)C)c1,5,4
CS(=O)(=O)c1cccc(C(=O)Nc2c3c(nc4ccccc24)CCCC3)c1,12,8

As a working copy, part of the list above:
smiles,NPYLR7 agonist,NPYLR7 agonist max-min
CCNC(=O)Cc1cccc(N(Cc2ccccc2)C(=O)NC(C)(C)C)c1,5,4
CS(=O)(=O)c1cccc(C(=O)Nc2c3c(nc4ccccc24)CCCC3)c1,12,8

The list continues:
smiles,NPYLR7 agonist,NPYLR7 agonist max-min
COC(=O)c1ccc2c(c1)S(=O)(=O)N(C1CCCCC1C)C2=O (configuration not stated),-1,-5
NC1=NC(=O)/C(=C\c2ccc(Cl)cc2Cl)S1,-3,-5
CCc1oc(C(=O)N2C[C@H]3CC=CC[C@H]3C2)cc1CN1CCCC1,8,5
CCCN(C)C(=O)c1c(C)cc(C)n1Cc1cccc(C)c1,15,18
O=C(CC1S/C(=N/N=C\c2cccs2)NC1=O)Nc1ccccc1C(F)(F)F (configuration not stated),-3,-3
N#Cc1cccnc1N1CCN(S(=O)(=O)c2ccc(F)c(F)c2)CC1,8,4
COc1ccc(C2CCCN2S(=O)(=O)/C=C/c2ccccc2)cc1OC (configuration not stated),6,3
Cc1oc(-c2cc(F)cc(F)c2)nc1CN1CCC(C(=O)N2CCCC2)CC1,1&0,0&-2
Cc1ccc(OC2CCN(Cc3ccncc3)CC2)c(C(=O)N2C[C@@H]3CCC[C@H]2C3)c1,13,17
CN1CCN(S(=O)(=O)c2ccc3[nH]cc(C(=O)O)c(=O)c3c2)CC1,1,-2
O=c1[nH]c(SCc2csc(-c3ccc(F)cc3)n2)nc2sccc12,5,4
O=C(O)CC1CNCCN(C(=O)c2ccccc2-c2ccccc2)C1 (configuration not stated),5,6
CCc1c(C)nn(CC(=O)N2CCC(c3nn(C)c(=O)n3CC)CC2)c1C,0,0
COc1cc2c(cc1OC)C(c1ccc(F)cc1)N(C(=O)COc1ccc(Cl)cc1)CC2 (configuration not stated),15,5
CCOC(=O)C(c1ccc(OC)c(OC)c1)C1C=CC(NS(=O)(=O)c2ccc(-c3ccccc3)cc2)C1 (configuration not stated),10,7
CC(C)(Oc1ccc(Cl)cc1)C(=O)N1CCN(Cc2nc3ccccc3c(=O)[nH]2)CC1,0,-8
CC(C)CC(C(=O)NCc1ccco1)N1C(=O)CSC1c1ccc(C(F)(F)F)cc1 (configuration not stated),29,24
CC(c1nc2ccccc2s1)N(C)S(=O)(=O)/C=C/c1ccccc1 (configuration not stated),-2,-3
COc1ccc(C2c3cccn3-c3ccccc3N2C(=O)CN(C(=O)c2ccccc2Br)C2CC2)cc1 (configuration not stated),-7,-5
Cc1cc(OC(=O)/C=C/c2ccccc2)c([N+](=O)[O-])c(=O)[nH]1,-3,-3
CC(C)(C)C1CCC(NC(=O)CCCCn2ccnc2CO)CC1 (configuration not stated),9,2
C[C@H]1C(=O)N(C)CCN1C(=O)c1ccc(OC2CCN(CCc3ccccc3)CC2)cc1,0,-1
CCN1CCc2c(sc3nc(C4CCCCC4)nc(N4CCNCC4)c23)C1,2,10
Cc1cn2c3c(=O)n(C)c(=O)n(C)c3nc2n1CC(=O)C(C)(C)C,1,9
CN(CCCNC(=O)C1CC=CCC1C(=O)N1CCN(c2ccccn2)CC1)c1ccccc1 (configuration not stated),-4,-11
COc1ccccc1CNC(=O)CCc1ccc2c(c1)OCO2,6,0
O=C(Nc1ccc(Cl)cn1)C1CCN(c2cn[nH]c(=O)c2Cl)CC1,-1,-2
Cc1cc(C)nc(SCc2cc(=O)c(OC(=O)C(C)(C)Oc3ccc(Cl)cc3)co2)n1,-8,-1
COc1ccc(CCCNC(=O)C2CCC(=O)N(CCN3CCOCC3)C2)cc1 (configuration not stated),-5,-8
Cc1ccc(-c2nccn2-c2cccc(N3CCCC3=O)c2)o1,-5,-5

Exported with each value named: entries from further up
O=C(CC1S/C(=N/N=C\c2cccs2)NC1=O)Nc1ccccc1C(F)(F)F (configuration not stated)
  NPYLR7 agonist: -3 | NPYLR7 agonist max-min: -3

CC(C)CC(C(=O)NCc1ccco1)N1C(=O)CSC1c1ccc(C(F)(F)F)cc1 (configuration not stated)
  NPYLR7 agonist: 29 | NPYLR7 agonist max-min: 24

Next section:
smiles,NPYLR7 agonist,NPYLR7 agonist max-min
CN1CCCC2(CCN(Cc3sc4ccccc4c3Cl)C2)C1=O (configuration not stated),8,10
Cc1cc2nc(-c3ccc(NC(=O)c4cc(Br)ccc4Cl)cc3)oc2cc1C,13,15
Nc1nc(Cl)cc(Nc2cccc(C(F)(F)F)c2)n1,0,5
COc1ccc(-n2c(-c3ccc(Br)cc3)c[n+]3c2CCC3)cc1,0&0,0&-2
Cc1nnc(-c2cc3ccccc3n2Cc2c(F)cccc2Cl)o1,-7,-7
CCCN(CC(=O)N1CC(=O)N(c2cccc(C)c2)C1)C(=O)CCC1CCCC1,15,13
Cc1cccnc1CN1CCN(Cc2c(C)nn(C)c2Cl)CC1,27,9
CC(C)NC(=O)N(CCN1CCOCC1)Cc1nccn1Cc1cccc(Cl)c1,7,8
Cc1[nH]n(-c2nc(-c3ccc(Br)cc3)cs2)c(=O)c1N=Nc1ccc(Cl)c(Cl)c1,8,19
CC1=C2C[C@H]3O[C@@]3(C)CCC3O[C@@]3(C)C[C@@]2(O)OC1=O (some centres not stated),-6,-12
CC(=O)c1c(N)nc2sc3c(c2c1C(F)(F)F)CCN(C(=O)Nc1ccc(F)cc1)C3,-3,-10
Cc1cc(C)nc(SCc2cc(=O)c(OC(=O)c3ccccc3Cl)co2)n1,-13,-8
COCc1cc(C)nc(N/N=C\c2cccc(OCc3ccc([N+](=O)[O-])cc3)c2)c1C#N,-2,9
CCO[C@H]1COC[C@@H]1NC(=O)CCC(=O)NC1CCCCCCC1,-4,-7
O=C(NCCCN1CCCC1=O)C1CCN(c2nccc(Nc3ccccc3)n2)CC1,4,3
Cc1cccn2c(=O)c(C(=O)NCc3c(F)cccc3F)c(O)nc12,-2,2
O=C(Cc1ccc(Cl)cc1)NC1CC2CCC(C1)N2CCc1ccc(F)cc1 (configuration not stated),11,6
CCCc1cnc2c(c1SCc1cccc([N+](=O)[O-])c1)c(=O)n(C)c(=O)n2C,3,3
Cc1ccc(NC(=O)c2nnn(Cc3ccccc3)c2N)c(C)c1,1,8
CC(OC(=O)c1ccc([N+](=O)[O-])o1)C(=O)Nc1ccccc1OC(F)F (configuration not stated),-2,-2
Cc1cnc(CNC(=O)C2CCC(=O)N(CCCc3ccccc3)C2)cn1 (configuration not stated),15&1,4&-2
CC(Oc1ccccc1Cl)C(=O)N1CCOC(COCc2cccc(C(F)(F)F)c2)C1 (configuration not stated),5,2

Some of the compounds tested; the hit share may differ from the screen's.
